YopH inh – YopH tyrosine phosphatase inhibitors, primary screen, biochemical, fluorescence Ex485/Em525 | inhibition, %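 (about 10 µM by stock and volumes)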 | 0.16% of 140,000 active;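 active = inhibition of 50% or more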;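 note: controls were vehicle for no effect and minimum signal wells for full effect; inactives centre near -20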
RecA intein inh – Mtb RecA intein splicing inhibitors, primary screen, biochemical, fluorescence, HTS. Protein RecA (Mycobacterium tuberculosis (strain ATCC 25618 / H37Rv)), P9WHJ3. cell-free RecA intein splicing. inhibition, %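 (about 9 µM by stock and volumes)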. 0.75% of 290,000 active. AID 2221, 2009; in the data active = inhibition above about 30%; inconclusive = no clear call, values can overlap the other calls;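 note: 0% = vehicle wells and 100% = reference inhibitor control wells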
Target sequence (P9WHJ3 whole entry, looked up): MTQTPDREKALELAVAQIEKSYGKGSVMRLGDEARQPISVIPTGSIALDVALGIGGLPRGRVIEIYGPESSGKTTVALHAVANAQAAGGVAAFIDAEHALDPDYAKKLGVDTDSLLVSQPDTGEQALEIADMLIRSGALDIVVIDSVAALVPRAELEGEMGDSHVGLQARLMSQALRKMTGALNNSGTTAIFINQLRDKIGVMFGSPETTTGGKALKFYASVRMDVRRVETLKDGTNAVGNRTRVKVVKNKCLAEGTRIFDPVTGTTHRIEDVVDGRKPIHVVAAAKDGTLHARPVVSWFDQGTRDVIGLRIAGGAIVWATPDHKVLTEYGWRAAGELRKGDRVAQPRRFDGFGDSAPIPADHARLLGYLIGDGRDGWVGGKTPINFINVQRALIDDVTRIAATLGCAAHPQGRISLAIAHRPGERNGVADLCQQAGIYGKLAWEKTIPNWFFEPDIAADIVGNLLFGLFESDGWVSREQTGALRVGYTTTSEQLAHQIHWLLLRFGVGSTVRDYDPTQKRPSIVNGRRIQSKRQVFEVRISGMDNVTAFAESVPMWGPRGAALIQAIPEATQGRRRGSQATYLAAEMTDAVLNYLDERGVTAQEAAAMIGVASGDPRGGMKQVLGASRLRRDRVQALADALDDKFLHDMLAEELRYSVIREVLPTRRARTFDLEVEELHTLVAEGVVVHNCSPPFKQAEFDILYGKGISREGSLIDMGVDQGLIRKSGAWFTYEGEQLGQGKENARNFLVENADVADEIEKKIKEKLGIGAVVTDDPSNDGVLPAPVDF
Arbovirus anti – antivirals against arbovirus infection, primary screen, cell-based, full library, 10K replicate subset | 0.37% of 200,000 active | inhibition, % at 10 µM | arbovirus infection cell-based antiviral screen;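 active = inhibition from about 30%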;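 note: bluetongue infection of BSR cells; cell survival read as ATP light after 72 h; 0% = infected wells without compound and 100% = uninfected wells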
Mtb betalactam – beta-lactam sensitization of Mtb H37Rv, H37Rv. inhibition, % at 25 µM. M. tuberculosis H37Rv growth with meropenem, percent inhibition; hits of this screen are not shown here. 0.27% of 330,000 active;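 active = about 74% or more and at least 40 points above the plate without the antibiotic, then above 30% in a dose series; inconclusive = first-round hits that could not be retested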;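 note: growth measured after seven days incubation then overnight dye step; 0% = bacteria only wells and 100% = bacteria with antibiotic; twin plates without the antibiotic show which effects depend on it; some results filed as inactive read as strong as hits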
Mtb growth – M. tuberculosis H37Rv growth inhibitors, H37Rv strain (AID 1626) | M. tuberculosis H37Rv growth inhibition; higher % means a stronger effect | one-dose inhibition, % at 10 µM; IC50 in µM for titrated hits | 0.95% of 220,000 active;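 active = confirmed in a dose series; inconclusive = inhibition above 80% but not taken into the dose series; inactive = below 80% or under 30% at every dose of the series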;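 note: bacteria incubated seven days before Alamar blue readout; 0% = bacteria only wells and 100% = bacteria with antibiotic wells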
Arbovirus anti repeat – recorded beside Arbovirus anti, whose call it bears; inhibition, %; measured here: 10K subset replicate screen; many hits read low in the repeat;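 first of two repeat runs on a subset; 0% = infected and 100% = uninfected wells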
* marks the source's active call; other numbers are inactive results; ? = inconclusive; · = no result given.

SMILES	YopH inh	RecA intein inh	Arbovirus anti	Mtb betalactam	Mtb growth	others
NNC(=O)CSCc1nc(-c2ccccc2)cs1	·	·	·	-4.0	-9.3%
O=C(Nc1ccc2nc[nH]c2c1)c1ccco1	-27.6	0.9	-4.9	-5.2	-0.5%
COCCn1nnnc1CN1CCC(O)(c2cccc(C(F)(F)F)c2)CC1	-23.9	-0.7	0.8	3.5	4.3%
COc1ccc(C2(c3ccc(OC)cc3)NC(=O)N(CC(=O)Nc3ccccc3C)C2=O)cc1	·	4.5	·	58.7	·
CCOC(=O)c1c(C)oc2c(F)c(F)c(F)c(F)c2c1=O	-13.5	-1.0	1.4	6.9	-7.1%
CCOc1cc(/C=N/Nc2nn3cnnc3c3ccccc23)ccc1O	·	-5.2	·	-3.8	-6.2%
NC1=NC(=Nc2ccc(S(=O)(=O)N3CCOCC3)cc2)c2ccccc21	·	1.9	·	-4.2	-3.0%
Cc1cc(NC(=O)CSc2nnc(-c3ccccc3)n2C)no1	·	-1.1	13.0	-3.0	3.4%
NC(=O)CC1NC(=O)c2ccccc21 (stereo not drawn)	0.9	·	-1.9	-9.9	-1.4%	Arbovirus anti repeat=2.9
CC/C(=N\N=C1\SC(C)C(=O)N1Cc1ccco1)c1ccccc1 (stereo not drawn)	-20.2	14.9	4.4	6.3	-1.8%
CSC(=Nc1cccc(C)c1)NC#N	-22.2	-0.9	2.0	-0.5	4.7%
COc1ccc(OC)c(S(=O)(=O)N(C)CC(=O)N2CCN(c3ccccc3)CC2)c1	-9.9	1.3	3.6	-6.5	4.5%
Cc1cccc(NC(=S)NNC(=O)CCn2nc(C)c([N+](=O)[O-])c2C)c1	-26.8	1.4	1.1	2.4	-1.3%
O=C(CCCSc1nc2ccccc2s1)Nc1nccs1	-35.5	1.3	14.1	-0.7	-1.6%
Cc1cnc(C(=O)OC(C)C(=O)Nc2ccc(Cl)cn2)cn1 (stereo not drawn)	·	-2.9	·	-9.6	·
CCn1cc([N+](=O)[O-])c(C(=O)N2N=C(c3ccc(O)c(OC)c3)CC2c2ccccc2O)n1 (stereo not drawn)	-26.9	1.2	-15.1	-1.4	4.9%
COc1ccc(N2CCN(C(CNC(=O)C(=O)NCCc3c[nH]c4ccccc34)c3ccco3)CC2)cc1 (stereo not drawn)	-33.8	-1.7	-5.8	4.2	22.2%
CCC1Nc2ncnc(N3CCN(c4ccccn4)CC3)c2N(Cc2ccc(Cl)cc2)C1=O (stereo not drawn)	·	8.3	·	32.4	·
CCOC(=O)C1=C(C)NC(=O)NC1/C=C\c1ccccc1 (stereo not drawn)	·	-2.8	·	-6.4	·
COc1ccc(NC(=O)CC2(Cc3ccccc3)CCOC(C)(C)C2)cc1 (stereo not drawn)	-51.1	1.9	2.3	3.5	13.8%
CS(=O)(=O)N1CCC(C(=O)Nc2ccc3c(c2)OCO3)CC1	-8.7	1.6	-1.8	3.0	-7.5%
CCOc1ccccc1NC(=O)CSc1nnc(-c2ccco2)n1Cc1ccco1	-38.0	4.2	3.0	-15.4	-5.3%	Arbovirus anti repeat=4.9
CCN(CC)c1ccc(S(=O)(=O)N2CCOCC2)cc1NC(=O)CNCc1ccccc1	·	3.6	·	-3.0	4.6%
N#CCCn1nc(-c2ccccc2)cc1Nc1ccccc1NC(=O)C(F)(F)F	-22.6	-1.8	-1.4	-0.2	-7.2%
CC(C)C(NS(=O)(=O)c1cccc2nsnc12)C(=O)N1CCCCC1 (stereo not drawn)	·	-11.7	·	-8.7	·
O=C(Cn1c2ccccc2c2nc3n(c(=O)c21)CCS3)Nc1ccccc1C(F)(F)F	·	-0.1	-4.1	-4.7	-4.3%
CCOC(=O)C1CCN(C(=O)Nc2ccccc2Cl)CC1	-34.9	2.9	-8.3	0.7	4.0%
Cc1nnc(NC(=O)NC(C)N2C(=O)C3C4C=CC(C4)C3C2=O)s1 (stereo not drawn)	-34.8	0.3	1.8	-6.1	-19.6%
CCCCn1c(N)c(NCc2ccccc2OC)c(=O)[nH]c1=O	·	-40.2	-4.6	-4.2	2.6%
COc1ccc(C)cc1NC(=O)CNc1ccc(C(C)=O)cc1	-8.6	0.8	-16.1	-0.6	4.4%
COc1ccc(C(=O)c2ncc(C(F)(F)F)cc2Cl)cc1	·	-0.6	-0.5	-8.1	7.1%
CC1CN(C(=O)/C=C/c2ccccc2Cl)CC(C)O1 (stereo not drawn)	·	0.4	·	5.6	·
CC(C)CC(=O)Nc1sc2c(c1C(=O)O)CCCCC2	·	-2.1	15.9	-2.9	2.7%
CC(C)c1ccc(Oc2cccc(C(=O)/C(C#N)=C/N(C)C)c2)cc1	7.9	23.3	15.8	-4.8	-11.5%
Cc1cc(NC(=O)c2ccco2)no1	-27.3	0.5	-2.6	0.1	2.2%
CC(C)NC(=O)c1sc(=S)n2c1[nH]c(=O)c1ccc(C(=O)NCCc3ccc(Cl)cc3)cc12	·	-3.5	·	96.0	·
COc1cccc(/C=N/Nc2ncnc3scc(-c4ccccc4)c23)c1OC	-21.8	7.9	-10.7	42.7	3.0%
COc1ccc(NS(=O)(=O)c2cccc(NC(=O)c3cnccn3)c2)cc1Br	·	-3.5	2.5	-5.0	2.6%
COc1ccc(CCNC(=O)c2cc(=O)n(C)c(=O)n2C)cc1OC	·	0.5	2.2	-5.2	-5.8%
CN(C)S(=O)(=O)c1cccc(-c2nnc(-c3ccccc3)o2)c1	-1.0	·	2.3	-3.9	4.1%
COC(=O)[C@H](CCSC)NC(=O)N1CCN(c2cccc(C(F)(F)F)c2)CC1	-50.7	4.9	3.2	96.3	58.5%
CCN(CC)CCCNC(=O)c1nn(-c2cccc(OC)c2)c(=O)c2ccccc12	-7.5	0.0	-1.4	-6.1	-6.0%
N#CNC(=Nc1cccc(Cl)c1)Oc1ccccc1	·	13.2	·	-3.2	5.4%
Cc1ccc(SCC(=O)N2c3ccccc3Sc3ccccc32)cc1	-18.2	6.6	-1.8	75.3	-4.5%
CCN(CC)S(=O)(=O)c1cc(NC(=O)C(C)OC(=O)c2[nH]c(C)c(C(C)=O)c2C)ccc1C (stereo not drawn)	-22.8	-0.2	-9.9	0.8	3.7%
CC(=O)C(C)Oc1ccc(Cc2ncc(C(F)(F)F)cc2Cl)cc1 (stereo not drawn)	·	1.3	-0.1	7.5	4.4%
Cc1ccc(OCC(=O)NN2C(=O)c3ccccc3C2=O)c(C)c1	-32.4	0.1	-1.5	-6.9	8.3%
O=C(O)CSCC(=O)Nc1ccccn1	·	0.6	·	-9.7	-4.5%
O=S(=O)(Cc1cc(-c2ccccc2)no1)c1ccccc1	·	-2.1	-0.8	-1.1	7.7%
COc1cccc(-c2noc(Cn3nc(C)c([N+](=O)[O-])c3C)n2)c1	-12.6	1.6	-0.2	-13.8	6.4%
Next part:
SMILES	YopH inh	RecA intein inh	Arbovirus anti	Mtb betalactam	Mtb growth	others
COc1ccc(C(NC(=O)/C=C/c2ccco2)c2ccc(OC)cc2)cc1	-6.4	0.7	-1.2	0.3	2.9%
Cc1ccc(NC(=O)CN(C)C(=O)/C=C/c2cccc(F)c2)cc1	·	-0.4	-2.3	-1.4	2.0%
CCn1c(-c2cccnc2Cl)nc2cc(Cl)c(Cl)cc21	-22.4	4.4	5.0	-4.8	13.1%
Cc1ccccc1SCC(=O)Nc1ccc(N2CCOCC2)cc1	·	0.0	-2.9	-6.8	-2.6%
Cc1ccc(NC(=O)CN2C(=O)S/C(=C\c3cccn3-c3cccc(C(=O)O)c3)C2=O)cc1C	·	·	-9.8	-2.2	-0.3%
COc1ccc(CCNC(=O)CCN2C(=O)COc3ccccc32)cc1OC	-20.4	-1.6	1.0	-1.5	-2.9%
O=C(COc1ccc(C(=O)c2ccc(F)cc2)cc1)NCc1ccc(F)cc1	-35.1	-0.5	-5.2	3.5	8.9%
COC(=O)c1ccc(/C=N\N2CCN(Cc3ccc(C)cc3)CC2)cc1	-39.0	0.6	3.1	72.7	?
CC(C)(C)NC(=O)C(c1ccc(Cl)cc1)N(CCO)C(=O)c1snc(C(N)=O)c1N (stereo not drawn)	·	-1.4	·	0.7	·
Cc1nonc1NC(=O)CSc1nc2cc(Cl)ccc2c2c1CCCC2	-17.6	2.0	-2.3	2.0	3.1%
C=C(C)CNC(=S)N/N=C/c1ccc(NC(C)=O)cc1	·	5.0	2.4	-5.5	0.6%
O=C(Nc1ccc(CN2CCOCC2)cc1)c1ccc2ccccc2c1	·	-3.3	·	-6.6	·
COc1ccc(C(=O)COC(=O)CN2CC(=O)Oc3ccccc32)cc1Br	-23.7	·	2.4	8.0	-14.2%
OCCCn1c(C2CCCN2c2nc(-c3ccc(F)cc3)cs2)nc2cc(C(F)(F)F)ccc21 (stereo not drawn)	·	5.1	·	72.1	-0.5%
COc1cc(NS(=O)(=O)c2ccc(NC(=S)NC(=O)COc3ccccc3OC)cc2)nc(OC)n1	·	4.6	-0.6	7.5	-1.9%
COc1cccc(OC)c1C(=O)NNC(=O)c1ccccc1-n1cccc1	·	·	10.1	5.7	-8.2%
COc1ccc(Cl)cc1N/C(N)=N/c1nc(C)cc(C)n1	·	-1.0	-1.6	-3.3	-4.1%
Cc1c(Cl)cccc1NC(=S)NCC(C)C	-29.8	·	-0.9	-5.5	-1.5%
CC1CCC(C(C)C)C(OC(=O)COC(=O)c2ccccc2N)C1 (stereo not drawn)	-20.0	1.9	4.9	22.7	6.1%
Cc1nc2ccc(NC(=O)NC(=O)c3c(Cl)cccc3Cl)cc2o1	·	-1.9	·	-0.2	7.1%
O=C(c1ccc(CS(=O)(=O)c2ccc(Br)cc2)o1)N1CCC2(CC1)OCCO2	-32.7	-0.5	7.3	-0.2	-6.2%
OC(CCN1CCC2(CC1)OCCO2)C(F)(F)F (stereo not drawn)	·	0.0	9.8	-0.4	-0.8%
Cc1cc(C(=O)N2CCCC(C(=O)c3cc(F)ccc3F)C2)c(C)o1 (stereo not drawn)	·	-4.6	3.6	4.4	2.0%
CCN(CC)S(=O)(=O)c1ccc2[nH]cc(C(=O)NCCc3ccc(OC)c(OC)c3)c(=O)c2c1	10.9	2.3	1.4	-10.6	-2.4%
CC(OC(=O)c1nccnc1N)C(=O)Nc1ccc(S(=O)(=O)N2CCCC2)cc1 (stereo not drawn)	·	-1.9	·	-9.1	·
Cc1nnc(C)n1/N=C/c1ccc(C(=O)O)cc1	-17.4	0.0	2.0	-16.9	-10.1%

Filtered by structure, the entries above containing a Cl atom (14)
SMILES	YopH inh	RecA intein inh	Arbovirus anti	Mtb betalactam	Mtb growth	others
Cc1cnc(C(=O)OC(C)C(=O)Nc2ccc(Cl)cn2)cn1 (stereo not drawn)	·	-2.9	·	-9.6	·
CCC1Nc2ncnc(N3CCN(c4ccccn4)CC3)c2N(Cc2ccc(Cl)cc2)C1=O (stereo not drawn)	·	8.3	·	32.4	·
CCOC(=O)C1CCN(C(=O)Nc2ccccc2Cl)CC1	-34.9	2.9	-8.3	0.7	4.0%
COc1ccc(C(=O)c2ncc(C(F)(F)F)cc2Cl)cc1	·	-0.6	-0.5	-8.1	7.1%
CC1CN(C(=O)/C=C/c2ccccc2Cl)CC(C)O1 (stereo not drawn)	·	0.4	·	5.6	·
CC(C)NC(=O)c1sc(=S)n2c1[nH]c(=O)c1ccc(C(=O)NCCc3ccc(Cl)cc3)cc12	·	-3.5	·	96.0	·
N#CNC(=Nc1cccc(Cl)c1)Oc1ccccc1	·	13.2	·	-3.2	5.4%
CC(=O)C(C)Oc1ccc(Cc2ncc(C(F)(F)F)cc2Cl)cc1 (stereo not drawn)	·	1.3	-0.1	7.5	4.4%
CCn1c(-c2cccnc2Cl)nc2cc(Cl)c(Cl)cc21	-22.4	4.4	5.0	-4.8	13.1%
CC(C)(C)NC(=O)C(c1ccc(Cl)cc1)N(CCO)C(=O)c1snc(C(N)=O)c1N (stereo not drawn)	·	-1.4	·	0.7	·
Cc1nonc1NC(=O)CSc1nc2cc(Cl)ccc2c2c1CCCC2	-17.6	2.0	-2.3	2.0	3.1%
COc1ccc(Cl)cc1N/C(N)=N/c1nc(C)cc(C)n1	·	-1.0	-1.6	-3.3	-4.1%
Cc1c(Cl)cccc1NC(=S)NCC(C)C	-29.8	·	-0.9	-5.5	-1.5%
Cc1nc2ccc(NC(=O)NC(=O)c3c(Cl)cccc3Cl)cc2o1	·	-1.9	·	-0.2	7.1%

Screening results as filed in PubChem.

A portion of the library; the hit share may differ from the screen's.
